T cruzi repl: T. cruzi replication inhibition; T. cruzi beta-gal in NIH3T3, luminescence, 90 h; inhibition, % (test concentration not listed); actives 1.4% (n = 300,000);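 active = mean inhibition across valid replicates above about 55%, limit read from the data; inconclusive = mean below that limit but half or more replicates reach it; inactive = mean below it, under half of replicates reach it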;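 also: signal also drops with host cell toxicity which is not excluded here; 0% = plate median of DMSO wells and 100% = zero luminescence signal; higher percent means less beta-gal luminescence so fewer parasites; stock transfer was 50 nL into about 50 µL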
rRNA inh HTS: selective bacterial rRNA inhibition in E. coli | E. coli WT GFP vs humanized-ribosome RFP mutants, fluorescence, 24 h; active compounds read low; DMSO median 0, no signal -100 | GFP signal change (wild-type ribosome), % (no concentration beside the values) | actives 1.6% (n = 350,000);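 active = significant combined selectivity score with lowered wild-type GFP, culture density cut under 30%, mutant RFP and density less affected; inactive = any of these conditions unmet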; also: one replicate is shown; some compounds called inactive have numbers as strong as hits
FGF22 binding: FGF22 (human) thermal shift binding; Q9HCT0; recombinant FGF22 thermal shift, SYPRO orange fluorescence; percent of sucrose octasulfate shift, DMSO zero; calls only at 9.99 µM; actives 1.5% (n = 340,000);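 active = melting point raised past a set limit in the mean and every replicate; inconclusive = no clear call; three in four hits are not shown here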
Target sequence (Q9HCT0 whole entry, looked up): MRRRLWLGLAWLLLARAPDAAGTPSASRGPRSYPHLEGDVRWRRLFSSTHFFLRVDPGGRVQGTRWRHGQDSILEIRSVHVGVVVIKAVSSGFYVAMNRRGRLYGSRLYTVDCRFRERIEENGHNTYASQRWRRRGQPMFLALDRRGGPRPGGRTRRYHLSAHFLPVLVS
UCH37 inh: human UCH37 deubiquitinating enzyme inhibition | purified proteasome/UCH37, Ub-AMC cleavage fluorescence | AID 588478 | Q9Y5K5 | actives 0.33% (n = 330,000) | inhibition, % (no concentration beside the values);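 active = mean of two replicates above 20%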;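 also: 0% = compound-free wells with enzyme and 100% = wells lacking proteasome; stock transfer was 100 nL into about 20 µL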
Target sequence (Q9Y5K5 whole entry, looked up): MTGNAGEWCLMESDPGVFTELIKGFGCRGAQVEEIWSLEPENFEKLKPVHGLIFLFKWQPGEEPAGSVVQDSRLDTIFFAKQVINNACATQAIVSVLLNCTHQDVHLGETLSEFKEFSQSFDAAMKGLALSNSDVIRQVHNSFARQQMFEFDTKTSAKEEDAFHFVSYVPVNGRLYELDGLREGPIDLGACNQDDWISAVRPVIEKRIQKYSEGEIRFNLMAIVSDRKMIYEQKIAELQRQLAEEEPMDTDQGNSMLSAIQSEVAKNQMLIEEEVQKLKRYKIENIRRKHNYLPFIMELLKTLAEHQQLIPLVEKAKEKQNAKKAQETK
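Signal – fluorescence, ex 355 nm, em 460 nm · System – Proteasome-bound UCH37 · Input – 0.15 nM proteasome as dispensed · Timing – 30 min preincubation with enzyme, 25 min cleavage at room temperature · Read-out basis – percent inhibition of cleavage signal versus uninhibited and no-proteasome wells · Medium – Tris-HCl pH 7.4 with ATP-MgCl2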
Beta cell apopt: blocks beta cell apoptosis; INS-1E cytokine-induced death, ATP luminescence, 48 h; percent of positive-control rescue, neutral wells zero; protection from apoptosis, % (concentration not given with the values); actives 0.8% (n = 300,000);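 active = all replicates at 75% or more, or half of them and the mean; inconclusive = half reach 75% but not the mean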;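 also: 0% = cytokine-treated negative control wells and 100% = positive control rescue; higher means more ATP so stronger rescue from cytokine killing; wells of about 40 µL received 100 nL stock; the first replicate is given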
Bfl-1 A1 inh: inhibitors of the anti-apoptotic protein A1, read as caspase activation | MEF A1-2A-BIM cells, Caspase-Glo 3/7 luminescence, 3 h; percent of clofoctol response, vehicle zero | caspase activation, % (concentration not given with the values) | actives 0.066% (n = 330,000);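 active = over half of replicate activation scores above 10%, or exactly half above 10 with the replicate mean above 10; inconclusive = replicate mean below 10 yet half the replicates above 10; inactive = over half of replicates below 10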;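 also: wells of about 30 µL received 50 nL stock; many hits fall short of the cut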
Ecoli growth: blocks Escherichia coli growth; OD600, 23 h; active compounds read low; OD600 absorbance (no concentration beside the values); actives 0.21% (n = 330,000);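 active = OD600 absorbance below the run mean of sample wells minus 3.6 SD, in any replicate, cut at about 0.56 in these data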;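 also: stock transfer was 300 nL into about 60 µL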
MLL AF4-AF9 inh: blocks AF4 peptide binding to human AF9; P42568; AlphaScreen, biotin-AF4 peptide binding to FLAG-AF9; inhibition, % at 10 µM; actives 0.47% (n = 350,000);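 active = every replicate reaching a set inhibition limit, whatever the replicate mean, cut at about 25% in these data; inconclusive = mean inhibition reaches that limit but some replicates miss it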;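 also: 0% = plate neutral control median and 100% = total signal loss; the record names both 10 and 1 µM as test concentration; the first replicate is given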
Target sequence (P42568 whole entry, looked up): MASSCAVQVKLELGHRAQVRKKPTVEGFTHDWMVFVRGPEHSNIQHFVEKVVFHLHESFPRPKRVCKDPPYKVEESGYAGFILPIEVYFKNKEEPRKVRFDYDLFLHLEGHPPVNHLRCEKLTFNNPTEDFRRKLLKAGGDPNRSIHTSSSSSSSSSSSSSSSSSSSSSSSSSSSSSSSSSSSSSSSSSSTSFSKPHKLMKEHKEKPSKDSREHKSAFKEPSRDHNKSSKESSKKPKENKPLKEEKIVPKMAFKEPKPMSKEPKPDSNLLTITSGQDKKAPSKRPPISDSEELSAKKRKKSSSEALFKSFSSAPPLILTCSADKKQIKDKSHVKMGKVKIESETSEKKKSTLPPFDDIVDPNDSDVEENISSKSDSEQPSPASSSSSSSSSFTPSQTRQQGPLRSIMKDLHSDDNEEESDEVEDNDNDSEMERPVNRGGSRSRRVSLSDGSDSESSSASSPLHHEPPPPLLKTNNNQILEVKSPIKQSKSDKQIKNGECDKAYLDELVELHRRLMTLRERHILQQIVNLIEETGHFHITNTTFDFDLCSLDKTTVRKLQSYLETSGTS
rRNA inh HTS OD600: further read-out of rRNA inh HTS, marked with its call; OD600 change, %; measured here: OD600 growth;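 optical density of the mix in the first replicate; 0 = DMSO median and -100 = no signal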
rRNA inh HTS RFP: second read-out of rRNA inh HTS, no call of its own (marks repeat the call); RFP signal change, %; measured here: RFP humanized mutant strains;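 first replicate; 0 = DMSO median and -100 = no signal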
Numbers without * were called inactive.

What do the screens show for `CC(C)[C@H]1C(=O)Nc2ccccc2N1C(=O)N[C@@H](Cc1ccccc1)C(=O)N[C@@H](Cc1ccccc1)C(=O)O`?
T cruzi repl: -10; FGF22 binding: inactive; UCH37 inh: 4.9; Beta cell apopt: -3; Bfl-1 A1 inh: 0.9; Ecoli growth: 0.7; MLL AF4-AF9 inh: -0.2

Results for CSc1ccc(NC(=O)CSc2nc3[nH]c(=O)cc(O)c3s2)cc1 ?
rRNA inh HTS: -6; FGF22 binding: inactive; UCH37 inh: 5.8; Beta cell apopt: 3; Bfl-1 A1 inh: -0.4; Ecoli growth: 0.69; MLL AF4-AF9 inh: -15; rRNA inh HTS OD600: -1; rRNA inh HTS RFP: -1.5

How did Cc1cc(C)nc(SCC(=O)c2cc3ccccc3oc2=O)n1 do in these assays?
T cruzi repl: 3; UCH37 inh: 4.7; Beta cell apopt: 3; Bfl-1 A1 inh: 0.2; Ecoli growth: 0.77

What do the screens show for `CC(C)(C)C(=O)COC(=O)c1cc(S(=O)(=O)N2CCCCC2)ccc1N1CCOCC1`?
T cruzi repl: 18; rRNA inh HTS: 9; FGF22 binding: inactive; UCH37 inh: -1.1; Beta cell apopt: -3; Bfl-1 A1 inh: 0.4; Ecoli growth: 0.63; MLL AF4-AF9 inh: -0.7; rRNA inh HTS OD600: 11; rRNA inh HTS RFP: -0.5

How did S=c1[nH]nc(-c2ccc3ccccc3n2)n1-c1ccc(Cl)cc1 do in these assays?
T cruzi repl: -53; UCH37 inh: 4.2; Beta cell apopt: 3; Bfl-1 A1 inh: 0.1; Ecoli growth: 0.73

What do the screens show for `COCCN1CCN(C(=O)c2ccc3nc(Cc4ccccc4F)oc3c2)CC1`?
T cruzi repl: -8; rRNA inh HTS: 8; FGF22 binding: inactive; UCH37 inh: -0.3; Beta cell apopt: -5; Bfl-1 A1 inh: 0.1; Ecoli growth: 0.67; MLL AF4-AF9 inh: -1.5; rRNA inh HTS OD600: 1; rRNA inh HTS RFP: 0.5

How did CC(=O)c1c(C)[nH]c(C(=O)CSc2nnc(CN3CCCCCC3=O)n2-c2ccccn2)c1C do in these assays?
T cruzi repl: -8; UCH37 inh: 2.4; Beta cell apopt: -8; Bfl-1 A1 inh: 1.1; Ecoli growth: 0.71

Results for Cc1cccc(OCC(=O)NS(=O)(=O)c2ccc(Br)cc2)c1 ?
T cruzi repl: -12; rRNA inh HTS: -14; FGF22 binding: inactive; UCH37 inh: 0.2; Beta cell apopt: -9; Bfl-1 A1 inh: 0.8; Ecoli growth: 0.67; MLL AF4-AF9 inh: -1.6; rRNA inh HTS OD600: 3; rRNA inh HTS RFP: -0.3

Results for CC(Oc1cc(F)ccc1[N+](=O)[O-])C(=O)N(C)CC(=O)Nc1ccccc1C(F)(F)F (centres undefined) ?
T cruzi repl: -11; rRNA inh HTS: 4; FGF22 binding: inactive; UCH37 inh: 1.1; Beta cell apopt: -4; Bfl-1 A1 inh: -0.1; Ecoli growth: 0.67; MLL AF4-AF9 inh: -1.0; rRNA inh HTS OD600: 1; rRNA inh HTS RFP: 2.0

Results for O=C(COc1ccc2ccc(=O)oc2c1)Nc1cc([N+](=O)[O-])ccc1F ?
T cruzi repl: -9; rRNA inh HTS: 5; FGF22 binding: inactive; UCH37 inh: -9.4; Beta cell apopt: 4; Bfl-1 A1 inh: 1.9; Ecoli growth: 0.69; MLL AF4-AF9 inh: -0.4; rRNA inh HTS OD600: 13; rRNA inh HTS RFP: 2.5

How did O=C(NCC1CCCO1)C(c1ccco1)N(Cc1ccc(F)cc1)C(=O)CN1C(=O)c2ccccc2S1(=O)=O (centres undefined) do in these assays?
T cruzi repl: 0; rRNA inh HTS: 13; FGF22 binding: inactive; UCH37 inh: -0.3; Beta cell apopt: -2; Bfl-1 A1 inh: 1.3; Ecoli growth: 0.64; MLL AF4-AF9 inh: 5.2; rRNA inh HTS OD600: 12; rRNA inh HTS RFP: 4.2

What do the screens show for `CCOC(=O)c1oc2ccccc2c1CN1CCN(C(=O)c2ccccc2)CC1`?
T cruzi repl: 10; rRNA inh HTS: -3; FGF22 binding: inactive; UCH37 inh: 5.7; Beta cell apopt: -5; Bfl-1 A1 inh: 0.4; Ecoli growth: 0.72; MLL AF4-AF9 inh: 0.1; rRNA inh HTS OD600: -8; rRNA inh HTS RFP: 4.7

Results for O=C(CSc1nc2ncccc2[nH]1)Nc1ccc2c(c1)OCO2 ?
T cruzi repl: -12; rRNA inh HTS: 2; FGF22 binding: inactive; UCH37 inh: 0.2; Bfl-1 A1 inh: 0.0; Ecoli growth: 0.7; MLL AF4-AF9 inh: -0.9; rRNA inh HTS OD600: 2; rRNA inh HTS RFP: -0.1

Results for COCCn1c(Sc2ccccc2)nc2c1c(=O)[nH]c(=O)n2C ?
T cruzi repl: -14; UCH37 inh: 3.5; Beta cell apopt: -5; Bfl-1 A1 inh: 0.3; Ecoli growth: 0.71

Results for CCCCNC(=O)Nc1nc(SCC(=O)OCC)n[nH]1 ?
T cruzi repl: -4; rRNA inh HTS: 9; FGF22 binding: inactive; UCH37 inh: 5.6; Beta cell apopt: -4; Bfl-1 A1 inh: 0.0; Ecoli growth: 0.71; MLL AF4-AF9 inh: 2.3; rRNA inh HTS OD600: 7; rRNA inh HTS RFP: 2.7

How did Cc1ccc(-c2cn(-c3ccccc3)c(=S)[nH]2)cc1C do in these assays?
T cruzi repl: 22; rRNA inh HTS: 6; FGF22 binding: inactive; UCH37 inh: 1.3; Beta cell apopt: 4; Bfl-1 A1 inh: -0.6; Ecoli growth: 0.67; MLL AF4-AF9 inh: 7.1; rRNA inh HTS OD600: -3; rRNA inh HTS RFP: 0.2

How did O=S(=O)(c1ccccc1)N1CCN(C(=S)Nc2ccccc2)CC1 do in these assays?
rRNA inh HTS: 3; FGF22 binding: inactive; UCH37 inh: 2.9; Beta cell apopt: -3; Bfl-1 A1 inh: inconclusive; Ecoli growth: 0.71; MLL AF4-AF9 inh: -5.7; rRNA inh HTS OD600: -9; rRNA inh HTS RFP: -2.2

What do the screens show for `CC#CCC(CC#CC)c1nc2ccccc2c(=O)n1N`?
T cruzi repl: 3; UCH37 inh: 1.3; Beta cell apopt: -13; Bfl-1 A1 inh: -0.5; Ecoli growth: 0.67

Results for COc1ccc(OC)c(C2CC(=O)N3CN(c4ccccc4F)CSC3=C2C#N)c1 (centres undefined) ?
T cruzi repl: 13; rRNA inh HTS: 0; FGF22 binding: inactive; UCH37 inh: 5.8; Beta cell apopt: -3; Bfl-1 A1 inh: -0.9; Ecoli growth: 0.78; MLL AF4-AF9 inh: -1.6; rRNA inh HTS OD600: 4; rRNA inh HTS RFP: -0.3

What do the screens show for `CCOC(=O)OC(C)OC(=O)[C@@H]1N2C(=O)[C@@H](NC(=O)[C@H](N)c3ccccc3)[C@H]2SC1(C)C` (some centres undefined)?
FGF22 binding: inactive; UCH37 inh: 0.2; Beta cell apopt: -4; Bfl-1 A1 inh: 0.6; MLL AF4-AF9 inh: -1.1

How did CN(C)c1ccc(C(=O)OCC#CCSc2nnc(-c3cccc4ccccc34)o2)cc1 do in these assays?
rRNA inh HTS: -2; FGF22 binding: inactive; UCH37 inh: -2.6; Beta cell apopt: 7; Bfl-1 A1 inh: -0.6; Ecoli growth: 0.79; MLL AF4-AF9 inh: 1.4; rRNA inh HTS OD600: 4; rRNA inh HTS RFP: -5.3

Results for C=C(C)C(=O)Nc1cccc(C2=NOC3(C2)C[C@@H](C(N)=O)N(C(=O)c2ccc(OC)cc2)C3)c1 (some centres undefined) ?
T cruzi repl: -16; UCH37 inh: 0.8; Beta cell apopt: -4; Bfl-1 A1 inh: 0.0

How did CC(=O)Nc1ccc(S(=O)(=O)NCc2nc(-c3ccccc3C)no2)cc1 do in these assays?
T cruzi repl: 2; rRNA inh HTS: -3; FGF22 binding: inactive; UCH37 inh: 0.7; Beta cell apopt: -1; Bfl-1 A1 inh: -0.1; Ecoli growth: 0.69; MLL AF4-AF9 inh: -10; rRNA inh HTS OD600: -3; rRNA inh HTS RFP: -0.5

How did CC1CCc2c(sc3c2C2=NS(=O)(=O)CCN2C=N3)C1 (centres undefined) do in these assays?
T cruzi repl: -2; UCH37 inh: -0.6; Beta cell apopt: -7; Bfl-1 A1 inh: -0.6; Ecoli growth: 0.71

What do the screens show for `Cc1nnsc1C(=O)Nc1cccc(Cl)c1`?
T cruzi repl: -35; rRNA inh HTS: -52; FGF22 binding: inactive; Beta cell apopt: -6; Bfl-1 A1 inh: -2.0; MLL AF4-AF9 inh: -1.7; rRNA inh HTS OD600: -80; rRNA inh HTS RFP: -31

What do the screens show for `Cc1ccc(CNC(=O)CCC(=O)Nc2nnc(C)s2)cc1`?
T cruzi repl: 3; rRNA inh HTS: 3; FGF22 binding: inactive; UCH37 inh: 1.5; Beta cell apopt: -4; Bfl-1 A1 inh: -0.1; Ecoli growth: 0.72; MLL AF4-AF9 inh: 1.4; rRNA inh HTS OD600: 2; rRNA inh HTS RFP: -0.5

Results for C=CCn1cccc(C(=O)Nc2ccc(OC)cc2OC)c1=O ?
T cruzi repl: 7; rRNA inh HTS: -20; FGF22 binding: inactive; UCH37 inh: 4.6; Bfl-1 A1 inh: -0.2; Ecoli growth: 0.72; MLL AF4-AF9 inh: 1.0; rRNA inh HTS OD600: -14; rRNA inh HTS RFP: -2.4

What do the screens show for `COc1ccc(C(=O)Oc2cc(C(=S)N3CCOCC3)ccc2OC)cc1`?
T cruzi repl: -20; rRNA inh HTS: -3; FGF22 binding: inactive; UCH37 inh: 0.2; Beta cell apopt: 5; Bfl-1 A1 inh: 0.6; Ecoli growth: 0.7; MLL AF4-AF9 inh: 6.0; rRNA inh HTS OD600: -8; rRNA inh HTS RFP: 2.1

What do the screens show for `CCCC(=O)N1CCC(CCC(=O)NC2CC2)CC1`?
T cruzi repl: -12; rRNA inh HTS: 4; FGF22 binding: inactive; UCH37 inh: 4.5; Beta cell apopt: -5; Bfl-1 A1 inh: -0.7; Ecoli growth: 0.72; MLL AF4-AF9 inh: 0.2; rRNA inh HTS OD600: 11; rRNA inh HTS RFP: 0.8

Results for O=C1/C(=C/c2ccc([N+](=O)[O-])cc2)Oc2cc(O)ccc21 ?
T cruzi repl: -8; rRNA inh HTS: -37; FGF22 binding: inactive; UCH37 inh: 14; Beta cell apopt: 0; Bfl-1 A1 inh: -9.2; Ecoli growth: 0.64; MLL AF4-AF9 inh: -12; rRNA inh HTS OD600: -74; rRNA inh HTS RFP: -18

Taken from above for reference:
What do the screens show for `CCCC(=O)N1CCC(CCC(=O)NC2CC2)CC1`?
T cruzi repl: -12; rRNA inh HTS: 4; FGF22 binding: inactive; UCH37 inh: 4.5; Beta cell apopt: -5; Bfl-1 A1 inh: -0.7; Ecoli growth: 0.72; MLL AF4-AF9 inh: 0.2; rRNA inh HTS OD600: 11; rRNA inh HTS RFP: 0.8

Results for O=C1/C(=C/c2ccc([N+](=O)[O-])cc2)Oc2cc(O)ccc21 ?
T cruzi repl: -8; rRNA inh HTS: -37; FGF22 binding: inactive; UCH37 inh: 14; Beta cell apopt: 0; Bfl-1 A1 inh: -9.2; Ecoli growth: 0.64; MLL AF4-AF9 inh: -12; rRNA inh HTS OD600: -74; rRNA inh HTS RFP: -18

Screening results (PubChem BioAssay)

The list is partial (hit frequency here may not be typical).
